# Screens (PubChem)
# Vaccinia inh: blocks a specific stage of Vaccinia orthopoxvirus infection. Vaccinia-infected cells, mCherry/Venus stage reporter fluorescence; active compounds read low; some inactives read as strong as hits. activity change (mCherry), % (no concentration beside the values). 0.01% of 89,000 active. AID 1053133;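 active = mCherry past -33% and 40 or more points under the early reporter, replicates agreeing; inconclusive = past -33% without that gap or agreement; tested in A549 cells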;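 also: scaled between vehicle wells and reference inhibitor wells; 23 nL library stock went into each well; one replicate is shown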
# Vaccinia inh Venus: second read-out of Vaccinia inh, no call of its own (marks repeat the call); activity change (Venus), %; measured here: Venus reporter, other viral stage;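 negative = less Venus signal; first of two replicates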
# * = called active by the depositor; ? = inconclusive; nt = no result given. A portion of the library; rates above refer to the full screens.
structure | Vaccinia inh | Vaccinia inh Venus
C[C@H]1CN([C@@H](C)CO)C(=O)c2cccc(NS(C)(=O)=O)c2O[C@H]1CN(C)Cc1ccc(-c2ccccc2)cc1 | -6 | 4
C[C@H]1CN([C@@H](C)CO)C(=O)CCCn2nncc2CO[C@H]1CN(C)Cc1cccc(C(=O)O)c1 | 1 | 8
CN(C)C(=O)C[C@H]1CC[C@@H]2[C@H](COc3ccc(NC(=O)C4CCOCC4)cc3C(=O)N2C)O1 | 11 | 10
CNC(=O)C[C@@H]1CC[C@H]2[C@H](COc3ccc(NC(=O)Nc4ccc(Cl)cc4)cc3C(=O)N2C)O1 | -1 | 4
C[C@@H]1CN([C@H](C)CO)C(=O)c2cccc(NC(=O)c3ccc(-c4nccs4)cc3)c2O[C@H]1CN(C)S(=O)(=O)c1ccc(Cl)cc1 | -6 | -2
C[C@@H]1CN([C@H](C)CO)S(=O)(=O)c2ccc(Br)cc2O[C@H]1CN(C)CC1CCCC1 | -19 | -30
COc1ccc(NC(=O)N(C)C[C@@H]2Oc3c(NC(=O)Nc4ccc5c(c4)OCO5)cccc3C(=O)N([C@@H](C)CO)C[C@@H]2C)cc1 | -3 | -5
NCC[C@H]1CC[C@H](NC(=O)NC2CCCCC2)[C@H](CO)O1 | 2 | 6
CO[C@H]1CN(C)C(=O)c2cc(NS(C)(=O)=O)ccc2OC[C@@H](C)NC[C@H]1C | 3 | 5
CCCC(=O)Nc1ccc2c(c1)C(=O)N(C)C[C@H](OC)[C@@H](C)CN[C@H](C)CO2 | 1 | 2
C[C@@H]1CN([C@@H](C)CO)C(=O)CCCn2nncc2CO[C@H]1CN(C)Cc1cccc(C(=O)O)c1 | 10 | 8
C[C@@H]1CN([C@@H](C)CO)C(=O)c2cc(C#Cc3cccnc3)cnc2O[C@@H]1CN(C)S(C)(=O)=O | 22 | 14
COc1ccc(NC(=O)Nc2ccc3c(c2)C(=O)N([C@H](C)CO)C[C@H](C)[C@@H](CN(C)C(=O)Cc2ccccc2)OCCCC[C@H](C)O3)cc1 | -10 | -19
O=C(C[C@@H]1CC[C@H]2NC[C@H](O)COC[C@@H]2O1)NCCc1ccccc1 | -4 | 0
O=C(C[C@@H]1CC[C@H]2[C@@H](COC[C@@H](O)CN2C(=O)c2ccccc2)O1)NCc1cccc(F)c1 | 0 | -2
COC(=O)C[C@@H]1C[C@@H]2c3cc(NC(=O)CN(C)C)ccc3O[C@@H]2[C@@H](CO)O1 | -12 | -4
Cc1ccc(S(=O)(=O)N(C)C[C@H]2Oc3ccc(NS(=O)(=O)c4ccccc4)cc3CC(=O)N([C@H](C)CO)C[C@H]2C)cc1 | -16 | -12
O=C(C[C@@H]1CC[C@@H]2[C@H](COC[C@@H](O)CN2C(=O)c2cccnc2)O1)NCc1ccccc1 | 5 | 8
CCCNC(=O)N(C)C[C@H]1Oc2ncc(-c3ccc(OC)cc3)cc2C(=O)N([C@@H](C)CO)C[C@@H]1C | 9 | 8
COc1cccc(S(=O)(=O)N(C)C[C@H]2OCc3cn(nn3)CCCC(=O)N([C@@H](C)CO)C[C@@H]2C)c1 | 26 | 4
COc1ccc(NC(=O)Nc2ccc3c(c2)C(=O)N([C@H](C)CO)C[C@@H](C)[C@@H](CN(C)C(=O)C2CCCCC2)OCCCC[C@@H](C)O3)cc1 | 1 | 0
C/C=C/c1ccc([C@H]2[C@@H](C#N)N(C(=O)NC3CCCCC3)[C@H]2CO)cc1 | -32 | -15
CN1C(=O)c2cc(NC(=O)Cc3ccccc3)ccc2OC[C@@H]2O[C@@H](CC(=O)O)CC[C@H]21 | 0 | -1
CNC(=O)C[C@H]1CC[C@H]2[C@@H](COc3ccc(NC(=O)c4ccc(OC)cc4)cc3C(=O)N2C)O1 | 6 | 3
O=C(c1cccc(F)c1)N1CC[C@H]2[C@H](CO)Nc3ccc(-c4ccccc4)cc3[C@H]21 | -16 | -7

# Complete entries, looked up by structure. Order of values: Vaccinia inh	Vaccinia inh Venus
# Profile of CNC(=O)C[C@@H]1CC[C@H]2[C@H](COc3ccc(NC(=O)Nc4ccc(Cl)cc4)cc3C(=O)N2C)O1 = -1	4
# Profile of COc1cccc(S(=O)(=O)N(C)C[C@H]2OCc3cn(nn3)CCCC(=O)N([C@@H](C)CO)C[C@@H]2C)c1 = 26	4
# Profile of CCCC(=O)Nc1ccc2c(c1)C(=O)N(C)C[C@H](OC)[C@@H](C)CN[C@H](C)CO2 = 1	2

# Later entries.
structure | Vaccinia inh | Vaccinia inh Venus
C[C@H](NC(=O)C[C@H]1C[C@@H]2c3cc(NS(C)(=O)=O)ccc3O[C@@H]2[C@@H](CO)O1)c1ccccc1 | 6 | 7
C[C@H](CO)N1C[C@H](C)[C@@H](CN(C)Cc2ccccc2)Oc2ccc(NC(=O)Cc3cn(C)c4ccccc34)cc2CC1=O | ? | nt
C[C@@H]1CN([C@@H](C)CO)C(=O)Cc2cc(NC(=O)C3CC3)ccc2O[C@H]1CN(C)S(C)(=O)=O | 12 | 6
C[C@H](CO)N1C[C@H](C)[C@H](CN(C)C(=O)CC2CC2)Oc2cc(C3=CCCCC3)ccc2S1(=O)=O | -28 | -22
CC(C)NC(=O)N(C)C[C@H]1Oc2ccc(NC(=O)C3CC3)cc2C(=O)N([C@H](C)CO)C[C@H]1C | 19 | 25
CC(C)(O)C#Cc1ccc([C@H]2[C@@H](CO)N3CCCCN(C(=O)c4cccnc4)C[C@H]23)cc1 | 22 | 9
CO[C@H]1CC[C@@H]2CCN(C)C(=O)[C@@H](C)[C@@H](OC)CN(C)C(=O)c3cc(C#N)ccc3OC[C@@H]1O2 | 7 | 3
Cc1cccc(CN(C)C[C@@H]2OCc3cnnn3CCCC(=O)N([C@H](C)CO)C[C@@H]2C)c1 | -6 | -9
O=C(NCC[C@H]1CC[C@@H](NC(=O)c2ccccc2F)[C@@H](CO)O1)c1cnccn1 | 6 | 6
O=C(CN1CCOCC1)NCC[C@@H]1CC[C@@H](NS(=O)(=O)c2ccc(Cl)cc2)[C@@H](CO)O1 | 2 | 12
COc1ccc(OC(=O)N(C)C[C@@H]2OCc3ccccc3-c3c(n(C)c4ccccc34)C(=O)N([C@@H](C)CO)C[C@H]2C)cc1 | ? | nt
C[C@H](CO)N1C[C@H](C)[C@@H](CN(C)C)OCCCC[C@H](C)Oc2ccc(NS(=O)(=O)c3cccs3)cc2C1=O | 11 | 3
O=C(Nc1cc(F)ccc1F)N[C@H]1C=C[C@H](CC(=O)N2CCc3ccccc3C2)O[C@H]1CO | -2 | 5
CC(C)NC(=O)N(C)C[C@@H]1Oc2cc(C3=CCCCC3)ccc2S(=O)(=O)N([C@@H](C)CO)C[C@H]1C | -15 | -14
O=C(O)C[C@H]1C[C@@H]2c3cc(NC(=O)c4ccc5c(c4)OCO5)ccc3O[C@@H]2[C@H](CO)O1 | 9 | 11
COc1ccccc1C#Cc1cnc2c(c1)C(=O)N([C@@H](C)CO)C[C@@H](C)[C@H](CN(C)S(=O)(=O)c1cn(C)cn1)O2 | -5 | 1
CCCNC(=O)N(C)C[C@H]1Oc2cc(C#CCN(C)C)ccc2S(=O)(=O)N([C@@H](C)CO)C[C@H]1C | 8 | 4
COCC(=O)NC[C@@H]1[C@H](c2ccccc2)[C@@H](CO)N1C(=O)c1ccccc1 | 21 | 15
CCCC#Cc1ccc([C@H]2[C@@H](CO)N3CCCCN(Cc4ccncc4)C[C@H]23)cc1 | -23 | -16
COc1ccccc1NC(=O)N1CC(=O)N2[C@H](CO)[C@H](c3ccc(-c4ccccc4)cc3)[C@@H]2C1 | -9 | -5
CC(C)NC(=O)N1[C@@H](CO)[C@@H]2c3ccccc3N(C(=O)Nc3ccccc3)C[C@@H]21 | 5 | 8
O=C(C[C@@H]1CC[C@H]2[C@@H](COC[C@H](O)CN2C(=O)c2ccccc2F)O1)NCc1ccc(-c2ccccc2)cc1 | -11 | -13
C/C=C/c1cnc2c(c1)C(=O)N([C@@H](C)CO)C[C@H](C)[C@H](CN(C)Cc1ccc3c(c1)OCO3)O2 | -4 | -6
C[C@@H]1CN([C@H](C)CO)C(=O)c2cc(-c3ccc(F)cc3)cnc2O[C@@H]1CN(C)C(=O)NC1CCCC1 | 5 | 0
Cc1ccc(-c2ccc3c(c2)O[C@H](CN(C)Cc2cccc(C(=O)O)c2)[C@@H](C)CN([C@H](C)CO)S3(=O)=O)cc1 | -15 | -17
O=C(c1ccccn1)N1C[C@H]2[C@@H](c3ccccc31)[C@H](CO)N2C(=O)Cc1ccccc1 | 12 | 5
CCC(=O)N1[C@H](CO)[C@H](c2ccc(-c3cccc(OC)c3)cc2)[C@H]1CNC(C)=O | 8 | 10
C[C@@H]1CN([C@@H](C)CO)C(=O)Cc2cc(NC(=O)Nc3ccccc3)ccc2O[C@H]1CN(C)C(=O)Nc1ccccc1 | -1 | -2
C[C@@H]1CN([C@@H](C)CO)C(=O)c2cccc(NS(C)(=O)=O)c2O[C@H]1CN(C)Cc1ccc(C(=O)O)cc1 | 15 | 11
CC(C)C#Cc1ccc2c(c1)O[C@H](CN(C)C(=O)c1cnccn1)[C@@H](C)CN([C@H](C)CO)S2(=O)=O | 17 | 7
CCC(=O)N[C@H]1C=C[C@@H](CC(=O)NCCN2CCCCC2)O[C@H]1CO | 13 | 12
CCN(C[C@H]1[C@@H](c2ccc(-c3ccccc3F)cc2)[C@@H](CO)N1C(C)=O)C(C)=O | 0 | 8
COCC(=O)N1C[C@@H](C)[C@H](OC)CN(C)C(=O)c2ccc(NC(=O)c3cc(C)on3)cc2OC[C@H]1C | 8 | 6
COCc1cn(CC[C@@H]2CC[C@@H](NC(=O)c3ccc(F)cc3)[C@@H](CO)O2)nn1 | 8 | 11
Cc1noc(C)c1NC(=O)Nc1ccc2c(c1)C(=O)N(C)[C@H]1CC[C@@H](CC(=O)N[C@H]3CCN(Cc4ccccc4)C3)O[C@@H]1CO2 | -7 | 1
C[C@@H]1CN([C@H](C)CO)C(=O)Cc2cc(NS(=O)(=O)c3ccccc3)ccc2O[C@H]1CN(C)C(=O)Nc1cccc2ccccc12 | 9 | 20
CCCC(=O)Nc1ccc2c(c1)C(=O)N(C)C[C@@H](OC)[C@@H](C)CN(C(=O)CC1CC1)[C@H](C)CO2 | 7 | 12
O=C(c1cc2c(c(-c3cccc(-c4ccc(F)cc4)c3)n1)[C@@H](CCO)N(C(=O)c1ccc3c(c1)OCO3)C2)N1CCOCC1 | -26 | -21
C[C@@H]1CN([C@H](C)CO)C(=O)c2cccc(NC(=O)c3cnccn3)c2O[C@H]1CN(C)Cc1ccc(Oc2ccccc2)cc1 | -20 | -25
COc1ccccc1-c1cn(CC[C@@H]2CC[C@H](NC(=O)C3CC3)[C@H](CO)O2)nn1 | -6 | -7
CC(C)CC#Cc1ccc([C@H]2[C@H]3CN(S(=O)(=O)c4ccccc4)CC(=O)N3[C@H]2CO)cc1 | -13 | -18
COc1ccc(NC(=O)Nc2ccc3c(c2)[C@H]2C[C@H](CC(=O)O)O[C@H](CO)[C@H]2O3)cc1 | -6 | -3
COc1ccccc1-c1cnc2c(c1)C(=O)N([C@H](C)CO)C[C@@H](C)[C@H](CN(C)CC1CCOCC1)O2 | 6 | -9
O=C(C[C@H]1CC[C@@H]2[C@H](COC[C@@H](O)CN2Cc2cc(F)ccc2F)O1)N1CCc2ccccc2C1 | -7 | -1
COc1ccc(NC(=O)Nc2ccc3c(c2)C(=O)N([C@@H](C)CO)C[C@H](C)[C@H](CN(C)Cc2ccc(C(=O)O)cc2)O3)cc1 | 3 | 7
C[C@@H]1CN([C@@H](C)CO)C(=O)Cc2cc(NC(=O)CCCN(C)C)ccc2O[C@H]1CN(C)Cc1ccc(Oc2ccccc2)cc1 | ? | nt
COc1ccc(CNC(=O)C[C@@H]2CC[C@@H]3[C@@H](COc4ccc(NC(C)=O)cc4C(=O)N3C)O2)cc1 | 3 | 6
CC(C)CC#Cc1ccc2c(c1)O[C@H](CN(C)C(=O)C1CCOCC1)[C@@H](C)CN([C@@H](C)CO)S2(=O)=O | -6 | -9
CCCN1[C@@H]2Cn3c(ccc(-c4ccc(OC)cc4)c3=O)[C@H]1[C@@H](C(=O)OC)[C@@H]2CO | -6 | -5
O=C(N[C@H]1CC[C@@H](CCNS(=O)(=O)c2ccc(Cl)cc2)O[C@@H]1CO)c1ccccn1 | -5 | 3

# (next part)
structure | Vaccinia inh | Vaccinia inh Venus
COc1ccc(S(=O)(=O)Nc2ccc3c(c2)C(=O)N([C@@H](C)CO)C[C@@H](C)[C@@H](CN(C)C(=O)Cc2ccccc2)OCCCC[C@@H](C)O3)cc1 | -12 | -20
C[C@@H]1CN([C@@H](C)CO)C(=O)c2cc(Br)cnc2O[C@@H]1CN(C)Cc1ccncc1 | 31 | 11
O=C(NCC[C@H]1CC[C@H](NS(=O)(=O)c2ccc(Cl)cc2)[C@H](CO)O1)c1ccc2c(c1)OCO2 | -12 | -7
Cc1noc(C)c1S(=O)(=O)Nc1cccc2c1O[C@H](CN(C)C(=O)NC(C)C)[C@H](C)CN([C@H](C)CO)C2=O | 11 | 9
CC(C)NC(=O)Nc1ccc2c(c1)C(=O)N([C@H](C)CO)C[C@H](C)[C@H](CN(C)C(=O)Nc1cccc3ccccc13)OCCCC[C@@H](C)O2 | 20 | 17
COC(=O)[C@H]1COC(c2ccc(OCCCO)cc2)=N1 | 13 | 20
C[C@@H]1CN([C@@H](C)CO)C(=O)c2cc(NC(=O)Nc3ccc(F)cc3)ccc2O[C@@H]1CN(C)CC1CCCCC1 | -34 | -24

# Reprinted from the listing (4 entries):
structure | Vaccinia inh | Vaccinia inh Venus
COc1ccc(S(=O)(=O)Nc2ccc3c(c2)C(=O)N([C@@H](C)CO)C[C@@H](C)[C@@H](CN(C)C(=O)Cc2ccccc2)OCCCC[C@@H](C)O3)cc1 | -12 | -20
C[C@@H]1CN([C@@H](C)CO)C(=O)c2cc(Br)cnc2O[C@@H]1CN(C)Cc1ccncc1 | 31 | 11
O=C(NCC[C@H]1CC[C@H](NS(=O)(=O)c2ccc(Cl)cc2)[C@H](CO)O1)c1ccc2c(c1)OCO2 | -12 | -7
Cc1noc(C)c1S(=O)(=O)Nc1cccc2c1O[C@H](CN(C)C(=O)NC(C)C)[C@H](C)CN([C@H](C)CO)C2=O | 11 | 9
